Bead autofluor: counter-screen for toxin protease inhibitors: compound fluorescence. fluorescence intensity (no concentration beside the values). compound autofluorescence counterscreen, microsphere flow cytometry; stronger effect = higher value. 360,000 compounds, 3.1% hits;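 active means at least 3 SD above the mean of all compounds, about 16000 in these data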;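 further: 100 nL of 1 mM stock went into each well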
Sa RN4220 lethal: growth inhibition of S. aureus RN4220, primary screen, OD600 | 16 h | inhibition, % (no concentration beside the values) | 330,000 compounds, 0.33% hits | AID 1259311, 2017;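 active means z-score of -3 or lower and OD600 up to 0.18 on both plates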;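 further: plate controls were untreated cells for no effect and reference antibiotic for full effect; stock transfer was 100 nL into about 80 µL; one replicate is shown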
BJeLR lethal: MLPCN primary cell-based screen for lethality selective to Ras in HRASV12 cells. inhibition, % (test concentration not listed). BJeLR (HRASV12) viability, CellTiter-Glo ATP luminescence, 48 h; reference of the scale not given here. 300,000 compounds, 0.17% hits. AID 1554, 2009;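 active means replicate mean above 50%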;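 further: 50 nL library stock added to about 25 µL; numbers are from one replicate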
ugtP null kill: growth inhibition of ugtP-null S. aureus, primary screen, RN4220 ugtP deletion, OD600; growth inhibition, % (no concentration beside the values); 16 h; some inactives read as strong as hits; 330,000 compounds, 0.54% hits;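 active means z-score under -3 and OD600 up to 0.15 on both plates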;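 further: plate controls were untreated wells for no effect and antibiotic for full effect; wells of about 80 µL received 100 nL stock; the first replicate is given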
PrP UTR inh: inhibition of PrP 5' UTR reporter expression | inhibition, % (no concentration beside the values) | cell-based PrP 5' UTR mRNA reporter, plate reader | 340,000 compounds, 0.35% hits;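 active means every replicate at 50% or more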;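 further: 0 = median of the neutral control wells; tested in H4 reporter cells; numbers are from one replicate; inactives centre near -14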
Mtb hypoxia inh: PubChem AID 1159583; 300,000 compounds, 0.1% hits; M. tuberculosis hypoxia-regulated fluorescent reporter, fluorescence; fluorescence inhibition, % (no concentration beside the values);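 active means 35 to 45% if threefold the growth effect, above 45% if 1.5-fold the growth effect; inactive means the rest, general growth blockers included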;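 further: wells of about 50 µL received 100 nL stock; 0% = vehicle wells and 100% = reference inhibitor wells; whole bacteria with a GFP reporter of the hypoxia response; strong numbers were not always called active; many hits fall short of the cut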
Mtb hypoxia inh growth: further read-out of Mtb hypoxia inh, marked with its call; growth inhibition, %; measured here: M. tuberculosis growth (absorbance);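 0% = vehicle and 100% = reference antibiotic; read after six days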
An asterisk follows results filed as active; · = no result given.

SMILES	Bead autofluor	Sa RN4220 lethal	BJeLR lethal	ugtP null kill	PrP UTR inh	Mtb hypoxia inh	Mtb hypoxia inh growth
OCC1CCCN(C2CCN(Cc3nc(Cc4cccc(C(F)(F)F)c4)no3)CC2)C1 (configuration not stated)	2426	6.4	4	19	-7	7	6
COCCN(C(=O)c1ccc(N2CCCC2=O)cc1)c1c(N)n(CC(C)C)c(=O)[nH]c1=O	2881	2.6	·	8	-23	2	-3
Cc1ccc(CNS(=O)(=O)c2ccc([N+](=O)[O-])cc2)cc1	4134	2.6	-12	10	-12	-9	-4
CC(Oc1ccc(F)cc1)C(=O)Nc1ccc(N2CCOCC2)cc1N1CCOCC1 (configuration not stated)	6814	4.4	-2	6	-11	4	4
COc1ccc(CCNC(=O)CN2CCCc3ccccc32)cc1OC	7712	5.1	-3	-2	-15	5	5
CC(NC(=O)Nc1ccccc1F)C(C)(C)C (configuration not stated)	2456	5.4	3	1	-6	4	-1
CCNC(=S)NNc1nc(N2CCCCC2)nc(N2CCOCC2)n1	4541	3.3	0	2	-4	4	1
CC1CN(C(=O)Cc2ccc(-c3ccccc3)cc2)CC(C)O1 (configuration not stated)	10730	6.3	2	9	-13	5	9
O=C(NCCCn1ccnc1)c1cccc(Cl)c1	3595	4.0	2	9	-5	15	8
CCCOC(=O)Nc1nc(-c2ccc(C)cc2)c(C)s1	3244	0.6	3	23	-45	8	8
COc1ccc(NC(=O)c2ccc(Cn3cc(Cl)cn3)cc2)cc1	3547	1.6	-10	-1	-27	3	5
COc1cc(C=NNc2ccc3ccccc3c2)ccc1OC(=O)c1ccco1	·	3.1	·	0	·	-3	-2
CC(=O)N[C@H]1[C@H]([C@H](O)[C@H](O)CO)OC(C(=O)O)=C[C@@H]1O	4287	·	7	·	-13	·	·
O=C(Nc1ncc(S(=O)(=O)c2ccc([N+](=O)[O-])cc2)s1)c1ccccc1F	4798	9.6	9	11	-16	-1	6
CCCN(CCC)C(=O)c1ccc2c(c1)N(CC)C(=O)c1ccccc1S2(=O)=O	4844	2.3	10	12	-13	2	7
CN1CCN(C(=O)/C=C/c2ccccc2)CC1	3600	1.4	3	4	-7	2	12
COc1ccc(C2CC(=O)C(C=NCC(C)C)=C(O)C2)cc1 (configuration not stated)	3509	3.5	17	9	-19	8	7
C=C1CCN([C@H](C(=O)NCc2ccc(OC)cc2)C(C)C)S(=O)(=O)c2ccccc21	5104	·	-6	·	-29	·	·
COc1ccc(C2C(C#N)=C(N)N(Nc3ccccc3)C3=C2C(=O)CC(C)(C)C3)cc1C (configuration not stated)	2467	0.8	-7	-5	-2	-3	-9
CCn1c(Cc2ccc(OC)cc2)nnc1SCC(=O)Nc1nc2ccccc2s1	3261	-13	-11	-5	-18	3	1
Cc1ccc(S(=O)(=O)N2CCC(c3nnc(SCCN4CCCC4)n3C)CC2)cc1	3200	4.7	-18	16	-14	12	4
Cc1ccc(C(=O)Nc2ccc(C(=O)N3CCCCC3C)cc2)cc1 (configuration not stated)	4478	4.6	15	8	-8	1	20
CC1CCCC(C)N1C(=O)COc1ccc(C(=O)NN=Cc2ccc(C(=O)O)cc2)cc1 (configuration not stated)	·	3.4	·	-6	·	2	9
CCOC(=O)NC1(C(F)(F)F)N=C(c2ccccc2)NC1=O (configuration not stated)	4996	0.2	-2	3	-10	·	·
Cc1ccc(NC(=O)Cn2c(CCC(=O)O)ccc2-c2cccs2)cc1	14042	4.2	9	-4	·	4	6
Fc1cccc(C2CC(c3cccc(Br)c3)Nc3nnnn32)c1 (configuration not stated)	3423	14	-4	-5	-1	0	0
O=C(C1=C(O)C(=O)N(CCN2CCOCC2)C1c1ccccc1)c1cccs1 (configuration not stated)	3819	-0.5	0	0	-26	4	9
CCOC(=O)c1ccc(NC(=O)CNC(=O)c2ccccc2)cc1	15332	-3.3	-14	7	-6	0	-3
Cc1ccc(C(O)C(=O)c2ccco2)cc1 (configuration not stated)	4219	3.4	7	4	-19	18	4
Cc1ccc(N2CCN(/N=C/c3c(C)nn(-c4ccccc4)c3Cl)CC2)cc1	2634	·	4	·	6	·	·
Cc1cc(C)n(C(C)CNS(=O)(=O)c2ccc(Cl)cc2)n1 (configuration not stated)	5877	1.4	-15	4	-15	5	6
c1ccc2c(CCNC3=NCCC3)c[nH]c2c1	3825	-1.4	-10	1	-28	·	·
Cc1[nH]nc2oc(=O)c(CCO)c(C)c12	7442	3.6	-4	1	-18	1	2
COc1ccc(NCc2nnc(SCC(=O)Nc3cccc(C)c3)o2)cc1	9080	-2.4	-13	-4	-2	6	13
O=C(Cc1ccc2c(c1)OCCO2)Nc1cc(C(F)(F)F)ccc1N1CCOCC1	5440	2.6	·	2	-21	9	10
COc1cc(OC)c(C=NNC(=O)c2ccncc2)c(OC)c1	·	-1.2	·	10	·	·	·

Of the compounds above, these have an aryl methoxy group:
SMILES	Bead autofluor	Sa RN4220 lethal	BJeLR lethal	ugtP null kill	PrP UTR inh	Mtb hypoxia inh	Mtb hypoxia inh growth
COc1ccc(CCNC(=O)CN2CCCc3ccccc32)cc1OC	7712	5.1	-3	-2	-15	5	5
COc1ccc(NC(=O)c2ccc(Cn3cc(Cl)cn3)cc2)cc1	3547	1.6	-10	-1	-27	3	5
COc1cc(C=NNc2ccc3ccccc3c2)ccc1OC(=O)c1ccco1	·	3.1	·	0	·	-3	-2
COc1ccc(C2CC(=O)C(C=NCC(C)C)=C(O)C2)cc1 (configuration not stated)	3509	3.5	17	9	-19	8	7
C=C1CCN([C@H](C(=O)NCc2ccc(OC)cc2)C(C)C)S(=O)(=O)c2ccccc21	5104	·	-6	·	-29	·	·
COc1ccc(C2C(C#N)=C(N)N(Nc3ccccc3)C3=C2C(=O)CC(C)(C)C3)cc1C (configuration not stated)	2467	0.8	-7	-5	-2	-3	-9
CCn1c(Cc2ccc(OC)cc2)nnc1SCC(=O)Nc1nc2ccccc2s1	3261	-13	-11	-5	-18	3	1
COc1ccc(NCc2nnc(SCC(=O)Nc3cccc(C)c3)o2)cc1	9080	-2.4	-13	-4	-2	6	13
COc1cc(OC)c(C=NNC(=O)c2ccncc2)c(OC)c1	·	-1.2	·	10	·	·	·

(cont.)
SMILES	Bead autofluor	Sa RN4220 lethal	BJeLR lethal	ugtP null kill	PrP UTR inh	Mtb hypoxia inh	Mtb hypoxia inh growth
C=CCNC(=S)Nc1ccccc1-c1nnc2n1CCCCC2	5574	1.8	-11	7	13	-14	-9
Cc1ccc(-c2nc(=S)c3c(n2CCN2CCOCC2)CC(C)(C)OC3)cc1	5105	1.6	-4	-2	-20	·	·
O=C(Nc1ccc([N+](=O)[O-])cc1)Nc1ccon1	4716	4.2	50	10	23	8	-2
NNC(=O)CNc1cccc(Br)c1	3020	1.3	-1	2	-13	6	8
CCN(c1ccccc1)S(=O)(=O)c1cc2c3c(c1)C(C)C(=O)N3CCC2 (configuration not stated)	5168	8.5	-4	2	-24	3	7
COc1cccc(CN(C)C(=O)C23CC4CC(CC(C4)C2)C3)c1	3935	4.4	-7	-1	-30	16	0
O=C(CSc1ccc([N+](=O)[O-])cc1)Nc1cccc(S(=O)(=O)Nc2ccccc2F)c1	2284	13	-4	-1	-23	11	-1
Cc1ccc(C=NNC(=O)c2nnn(-c3nonc3N)c2CSc2ccccc2)o1	·	-1.4	·	5	·	3	-15
Cc1ccccc1NC(=O)Cn1c(=O)n(C)c2ccccc21	21084*	1.2	7	1	4	1	-3
O=C(Nc1ccccc1C(=O)O)c1cccc(NC(=O)c2ccco2)c1	4247	3.0	-11	5	-14	13	19
Cc1ccc(-c2csc(N)n2)cc1	3999	2.5	·	12	-52	13	8
COc1ccc(C2=NN(CCC(=O)NCc3ccc4c(c3)OCO4)C(=O)CC2)cc1	2002	-4.9	-2	-3	-9	-3	-8
COc1ccccc1NC(=S)N1CCN(C(=O)C2CCCO2)CC1 (configuration not stated)	2003	0.8	1	10	-11	-1	1
COc1ccc(Cc2c(O)nc(SCC(=O)c3ccc(OC)cc3)[nH]c2=O)cc1	4070	6.5	8	4	-15	9	2
O=C(COc1ccccc1[N+](=O)[O-])NN=Cc1ccc(OC(=O)c2ccco2)cc1	·	5.4	·	18	·	15	10
Cc1cccc(Cc2nnc(CCC(=O)N(C)C3CCOC3)o2)c1 (configuration not stated)	4122	1.9	2	4	-43	3	-1
CC(C)CCNC(=O)CN(Cc1ccc2c(c1)OCO2)C(=O)CCC(=O)Nc1ccccn1	2660	-1.8	1	4	-22	·	·
Cc1cc(OCCN2CCCC2)ccc1C(C)C	2770	3.8	3	7	-18	-5	3
Nc1nonc1C(=O)NCCNS(=O)(=O)c1ccc(Br)cc1	7192	4.6	-7	5	3	4	3
Cc1ccc(S(=O)(=O)Nc2cccc(-c3cn4ccsc4n3)c2)cc1	2661	3.6	4	15	5	-1	-2
CCC(C)NC(=O)CC(c1ccccc1)c1cc(C)ccc1O (configuration not stated)	4234	-1.6	2	-5	-15	-1	-18
CCOc1ccc(S(=O)(=O)N(C)C2CCCCC2)cc1	5195	1.0	-9	-4	-16	-3	-1
CCOC(=O)C1CCN(C(=O)CSCCSCC(=O)N2CCC(C(=O)OCC)CC2)CC1	3376	8.3	-7	7	-15	4	-6
CCc1ccc(N2CC(C(=O)Nc3ccc(C)c(S(=O)(=O)N4CCOCC4)c3)CC2=O)cc1 (configuration not stated)	22656*	3.0	-6	-5	-19	13	-6
O=C(c1ccc(C(F)(F)F)cc1)C1CCCN(Cc2ccc(CO)o2)C1 (configuration not stated)	4175	3.6	4	9	-16	-8	5
CC(=O)c1ccc(N2CCN(S(=O)(=O)c3cc(-c4cc(C)no4)ccc3C(C)C)CC2)cc1	5446	-0.5	-8	13	-12	5	8
CCCNCC1C(Oc2ccc(Cl)cc2Cl)C(=O)N1c1cccc(C)c1C (configuration not stated)	2075	-4.2	-2	-19	1	-11	2
Cc1nc(-c2ccc(S(=O)(=O)Nc3cccc(Cl)c3)cc2)co1	5637	4.5	9	-7	0	5	3
CCOC(=O)c1cc2c(=O)n3ccccc3nc2n(Cc2ccco2)c1=NC(=O)c1cccc(OC)c1	4839	11	-25	12	-9	6	-1
CCOc1ccc(N(Cc2ccc(C(=O)O)cc2)S(=O)(=O)c2ccc(C)cc2)cc1	3935	0.5	-5	17	-24	8	-2
O=C(Cn1cc(C(=O)c2ccccc2F)c2ccccc21)NCc1ccco1	6790	1.4	-7	3	-25	1	-3
Cc1c2c(nc3c(C(=O)NC4CC4)cnn13)CCCC2	21129*	2.8	-2	2	-24	-4	0
Cc1cc(/C=C2\C(=O)NC(=O)N(c3ccccc3F)C2=O)c(C)n1-c1cc(C(=O)O)cc(C(=O)O)c1	3798	·	-8	·	-18	·	·
CC(=O)Nc1ccc(NC(=O)CSc2nnc(-c3ccc4c(c3)OCO4)o2)cc1	3566	1.8	·	-10	-22	2	15
Cc1cc(NC(=O)c2ccccc2)n(-c2nc3ccccc3[nH]2)n1	4247	-5.0	2	8	-14	5	2
CC(C)CCOCC(O)CCC(=O)NNC(=S)Nc1ccccc1 (configuration not stated)	2577	2.8	5	1	-21	7	0
Cc1cc(=O)n2nc(-c3ccccc3)sc2n1	9059	5.0	4	7	-47	5	6
O=C(NC1CCCC1)C1c2ccccc2C(=O)N1CCCN1CCOCC1 (configuration not stated)	4298	5.8	0	4	-21	2	4
Cc1cc(=O)[nH]c(N/N=C/c2ccccc2C(F)(F)F)n1	4510	·	2	·	-94	·	·
COc1ccc2[nH]c3c(c2c1)CCCC3=NN	·	-1.2	·	0	·	7	-1
O=C(Cc1ccc(NC(=O)C2CCN(C(=O)C3CCC3)CC2)cc1)Nc1cccc(C(=O)N2CCCC2)c1	3639	4.1	·	4	-10	-4	4
CCC(=O)Nc1ccc(C(=O)NNC(=O)c2ccccc2)cc1	3427	3.2	14	7	-25	4	-5
Cc1cc(Oc2ccc(=O)n(C)n2)nc(SCc2ccccc2)n1	4473	3.0	5	9	-26	16	12
CC(C)[C@H]1COCCS(=O)(=O)N1Cc1ccccc1	4072	·	-6	·	-16	·	·
COC(=O)NC(NC(=S)Nc1cccc(C)c1)C(Cl)(Cl)Cl (configuration not stated)	4554	4.1	0	-1	-20	11	-1
COc1cc(C=NNC(=O)CCC(=O)Nc2ccc(C)cc2)ccc1O	·	0.9	·	5	·	4	2
NC(=O)c1sc2cc(C(F)(F)F)cnc2c1-c1ccccc1	3513	1.7	1	8	-13	3	2
CCCOc1ccc(CSc2n[nH]c(C)n2)cc1	4078	·	-4	·	-49	·	·

Compound activity from PubChem.
